VDR inhibitor – vitamin D3 receptor (human) inhibition. P11473. 0.93% of 400,000 active. VDR-SRC2-3 peptide fluorescence polarization, 2 h. Potency, µM, without a hit: max response, negative = inhibition, actives largely listed as inhibitors; active = well fitted inhibition curve with a large enough effect; inconclusive = small, poorly fitted or top-dose-only effect, or another doubt; inactive = no such curve, though single readings can be large or run the other way; note: series mostly up to about 120 µM
Target sequence (P11473 whole entry, looked up): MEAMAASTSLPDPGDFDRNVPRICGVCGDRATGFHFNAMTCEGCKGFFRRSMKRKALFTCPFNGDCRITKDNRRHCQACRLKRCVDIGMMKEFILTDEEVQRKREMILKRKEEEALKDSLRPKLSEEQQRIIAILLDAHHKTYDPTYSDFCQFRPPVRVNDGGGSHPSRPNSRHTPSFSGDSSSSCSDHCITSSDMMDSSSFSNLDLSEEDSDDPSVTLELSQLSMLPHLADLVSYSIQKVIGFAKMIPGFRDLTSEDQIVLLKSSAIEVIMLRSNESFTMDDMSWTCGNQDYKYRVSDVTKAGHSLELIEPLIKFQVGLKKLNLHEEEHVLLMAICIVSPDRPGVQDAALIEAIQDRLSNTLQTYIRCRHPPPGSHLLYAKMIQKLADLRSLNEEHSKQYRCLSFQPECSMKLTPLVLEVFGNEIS
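After 23 nl compound addition and a short centrifugation, plates sat for 2 hours at ambient temperature; polarization of fluorescence then indicated loss of VDR binding to peptide SRC2-3.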
Active calls of the source: *; ? = inconclusive; & = joins results of further samples. % is set by controls: 0 for no effect and ±100 for the full control effect; potency is the fitted concentration of half-maximal effect. A portion of the library; rates above refer to the full screens.

SMILES	VDR inhibitor
CCCC[C@H](NC(=O)[C@@H]1CCCN1C(=O)[C@H]1CCCN1C(=O)[C@H](Cc1ccccc1)NC(=O)[C@@H](Cc1c[nH]c2ccccc12)NC(=O)[C@H](C)NC(=O)[C@H](CCCN=C(N)N)NC(=O)OC(C)(C)C)C(N)=O	0%
CCOC(=O)N1CCN(S(=O)(=O)c2ccc(OC)c(Cl)c2Cl)CC1	12%
CCOc1ccc2c(c1)C(c1ccc(C)cc1)=NNC(c1ccc(OC)cc1)=N2	-2%
CCC(Oc1ccccc1)C(=O)Nc1nnc(S(=O)(=O)N2CCCCC2)s1 (configuration not stated)	0%
Cc1cc(N2C(=O)C(=O)/C(=C(/O)c3ccc(F)cc3)C2c2cccc(Br)c2)no1 (configuration not stated)	-23%
CC(C)c1ccc(NC(=O)CSc2nc(=O)n(Cc3cccnc3)c3c2CCC3)cc1	-8%
O=C1c2ccccc2C(=O)N1CCCCSc1nnc2ccccn12	0%
CC(C)c1ccc(-n2nc3ccc(N)cc3n2)cc1	1%
Cn1c(SCC(=O)NC2CC2)nnc1C1CC1	23%
Cn1c(C(=O)OC(C(=O)NC2CCCCC2)c2cccnc2)cc2sccc21 (configuration not stated)	5%
O=S(=O)(Nc1ncnc2c1oc1ccccc12)c1ccc(Cl)s1	-2%
CCc1ccc(OCC(=O)N2CC(C(N)=O)Oc3ccccc32)cc1 (configuration not stated)	8%
O=c1c2c3c(sc2nnn1CCCCOc1ccc(Cl)cc1)CCCC3	8%
COC(=O)c1ccccc1CSc1nsc(C)c1C#N	-25%
CCOc1ccc(N2CC(C(=O)Nc3ccccn3)CC2=O)cc1 (configuration not stated)	-9%
Cc1c(C)c2ccc(OCC(=O)N3CC[C@@]4(O)CCCC[C@H]4C3)c(C)c2oc1=O	-21%
Cc1ccc(C)c(CN2CCC(CNC(=O)Nc3cccc(Cl)c3C)CC2)c1	2%
CCC(Sc1nc2ccccc2c2nc(CCc3c(C)n[nH]c3C)nn12)C(=O)Nc1ccc(OC)cc1 (configuration not stated)	14%
O=C(O)c1cc(S(=O)(=O)NC(CO)C(O)c2ccc([N+](=O)[O-])cc2)ccc1Br (configuration not stated)	-18%
CC(C)C(=O)Nc1cccc(NC(=S)NC(=O)c2ccccc2Cl)c1	-12%
O=C(Cn1c(=O)c2cccn2c2ccc(F)cc21)N1CCN(c2ccc(F)cc2)CC1	15%&7%
O[C@@H]1CCN2Cc3ccccc3N=C12	3.5µM*
O=C(Cn1cc2c(n1)CCCC2)N1CCOCC1	10%
O=C(COC(=O)CCC(=O)c1ccccc1)Nc1nnc(-c2ccccc2)o1	-3%
O=C(CCc1nnc(Cc2ccc3c(c2)OCO3)o1)NC(c1ccccn1)C(F)(F)F (configuration not stated)	14%
Cc1cc(C)nc(SCc2cn3ccccc3n2)n1	-12%
O=C(CN1C(=O)COc2ccc(S(=O)(=O)N3CCOCC3)cc21)N1CCN(c2ccc(Cl)cc2)CC1	-4%
Cc1ccc(-n2cnc3cc(C(=O)NCCC4=CCCCC4)ccc32)c(C)c1	13%
Cc1ccc(C(=O)N/N=C/C=C/c2ccccc2)cc1	-6%
CC(Oc1cccc([N+](=O)[O-])c1)C(=O)NCCC1=CCCCC1 (configuration not stated)	-8%
CCOC(=O)C(=O)NCC(c1cccs1)S(=O)(=O)c1ccc(Cl)cc1 (configuration not stated)	2%
CCOC(=O)C1CCCN(C(=O)CCc2nnc(-c3ccc(C(C)=O)s3)o2)C1 (configuration not stated)	-19%
COc1ccc(Br)c(C(=O)Nc2cc3c(cc2N2CCCC2)n(C)c(=O)c(=O)n3C)c1	-5%
COc1ccc(NS(=O)(=O)c2cc(NC(=O)C3CC3)ccc2N2CCCCC2)cc1	-8%
COc1ccc(CCNc2c(C=O)c(=O)[nH]c3ccccc23)cc1OC	-10%
COc1ccc([C@@H](OC)[C@@]2(Cc3ccc(O)cc3)N=C(N)N(C)C2=O)cc1	-2%
CON(C)c1nc(OCCNC(=O)COc2ccc(Cl)cc2C)nc(N(C)C)n1	3%
Cc1ccc(-c2noc(C3CCCN(C(=O)c4c(F)cccc4F)C3)n2)cc1 (configuration not stated)	6%
COc1ccc(NC(=O)/C=C2\SC(=O)NC2=O)cc1	-17%
Cc1cccc(C)c1NC(=O)CNC(=O)c1ccc2nc[nH]c2c1	-4%
CC(C)CNC(=S)Nc1ccccc1F	14%
Cc1cccc(C)c1NC(=O)C(C)Sc1n[nH]c(-c2ccncc2)n1 (configuration not stated)	-15%
COc1ccc([C@@H]2CC=C(C(=O)O)[C@H](c3cccc(Cl)c3)N2S(=O)(=O)c2ccccc2C)cc1	-14%
CCN(C(=O)COC(=O)c1ccc(SC)cc1OC)C1CCS(=O)(=O)C1 (configuration not stated)	9%
Cc1ccc(S(=O)(=O)N2CCN(C(=O)COC(=O)/C=C/c3ccccc3)CC2)c(C)c1	-20%
Cc1cnc(C(=O)OCC(=O)N(CC(C)C)C2CCS(=O)(=O)C2)cn1 (configuration not stated)	4%
COC(=O)C1CCN(C(=O)COC(=O)c2oc3ccc(OC)cc3c2C)CC1	11%
O=C(Nc1ccc(C(F)(F)F)cc1)c1ccccc1Br	-1%
C/C(=N\N=C\c1cccc(F)c1)c1nnn(-c2nonc2N)c1C	0%
CC1CCCN(S(=O)(=O)c2cccc(-c3cn4cccnc4n3)c2)C1 (configuration not stated)	-9%

(further entries)
SMILES	VDR inhibitor
Cc1cnc(C(=O)OCC(=O)Nc2c(Cl)cc(Cl)cc2Cl)cn1	-13%
OCCN1CN=C(Nc2nc3ccccc3s2)NC1	8%
Cc1ccc(/C=C/C(=O)N2CCN(S(=O)(=O)c3ccc(C)c(C)c3)CC2)o1	?
COc1ccc(C2C(C(=O)c3ccc(C)o3)=C(O)C(=O)N2Cc2cccnc2)cc1 (configuration not stated)	-27%
CC1CCCC(NC(=O)CSc2nnc(-c3cccnc3)n2N)C1C (configuration not stated)	?
COc1cc(OC)cc(-c2nc3ccccc3c(=O)n2OC(=O)c2ccccc2C)c1	-10%
Cc1ccc(C)c(OCC(=O)N(Cc2ccccc2)c2c(N)n(Cc3ccccc3)c(=O)[nH]c2=O)c1	-10%
COC(=O)c1cc(-c2ccc(Cl)cc2)c2c(=O)[nH]c(=O)n(C)c2n1	1%
CCN(CC)c1ccc(-n2nc3cc(C)c(NC(=O)c4ccccc4C)cc3n2)c(C)c1	12%
CC(=O)Oc1ccc2c(c1)Oc1cc(OC(C)=O)ccc1C21OC(=O)c2ccccc21	-12%
Cc1cc(C)c2c(c1)OC(=O)CC2c1ccc2c(c1)OCO2 (configuration not stated)	-9%
Cc1ccc(S(=O)(=O)N(C)C)cc1NC(=O)CN1C(=O)NC2(CCCCCC2)C1=O	-9%
COCCCNC(=S)Nc1ccc2nc(N3CCOCC3)cc(C)c2c1	-11%
COc1ccccc1C(CNC(=O)C1CCN(C(=O)Nc2ccccc2)CC1)N1CCCC1 (configuration not stated)	-3%
Cc1ccc(NC(=O)CSCC(=O)Nc2ccccc2C(=O)NC2CC2)cc1	0%
O=C(NCc1ccc2c(c1)OCO2)c1ccc(COc2cc(Cl)ccc2Cl)o1	-14%
O=C(NCC1COc2ccccc2O1)c1ccccc1 (configuration not stated)	-22%
c1ccc(CCOn2ccnc2)cc1	-18%
CS(=O)(=O)c1sc(C#N)c2c1C(=O)CC(c1ccccc1)C2 (configuration not stated)	14µM*
O=S1(=O)CCOCCN1Cc1ccccc1	-17%
CC(C)[C@H](NC(N)=O)C(=O)Nc1ccc(Oc2ccccc2)cc1	-8%
CN(C)c1ccc(NC(=O)c2ccc3c(c2)nnn3C)cc1	2%
Cc1cc(C(=O)Cn2nnc3ccccc3c2=O)c(C)n1Cc1cccs1	2%
COc1ccc(CN2[C@@H](CC(C)=O)c3cc(C(F)(F)F)ccc3S2(=O)=O)cc1	-1%
CC(=O)c1c(C)[nH]c(C(=O)NCc2ccccc2F)c1C	-4%
COc1cc(NC(=O)COC(=O)c2cc(S(=O)(=O)N3CCCCC3)ccc2Cl)c(C)cc1[N+](=O)[O-]	-2%
Cc1cccc(-n2ccnc2SCC(=O)Nc2nccs2)c1C	-17%
Cc1ccc2nc(C)cc(C(=O)OCC(=O)Nc3c(C)n(C)n(-c4ccccc4)c3=O)c2c1	-20%
CSc1nc2ccc3nc(NC(=O)c4ccc(C)cc4)sc3c2s1	-10%
O=C(CN(Cc1ccc(F)cc1)C(=O)CCC(=O)Nc1ccccn1)NCCc1ccccc1	7%
CCN1CCN(C(C(=O)NC2CCCC2)c2cc3c(cc2[N+](=O)[O-])OCO3)CC1 (configuration not stated)	-5%
COC(=O)[C@]1(CC(C)C)N[C@H](c2ccc(-c3ccc(Cl)c(Cl)c3)cc2)[C@@H]2C(=O)N(C)C(=O)[C@@H]21	-8%
CCOc1ccccc1C(=O)N1CCN=C1SCc1cccnc1	-3%
CC(C)Cc1csc(NC(=O)C(C)C)c1C(=O)O	24%
CC(C)(C)Nc1nc(Cl)nc(NCc2ccccc2)n1	-6%
CC1=C(C(=O)Nc2ccccc2)C(c2cccnc2)n2ncnc2N1 (configuration not stated)	6%
COc1ccc(OC)c(NC(=O)CCOc2cccc(C)c2)c1	9%
COc1ccc(N(CC(=O)NC2CCCC2)S(=O)(=O)c2ccc(NC(C)=O)cc2)cc1	-12%
CCCn1c2ccccc2c2cnn(CC(=O)Nc3cccc(C(=O)OCC)c3)c(=O)c21	7%
Cn1c2ccccc2n2c(=O)cc(-c3ccccc3)c(C#N)c12	-15%

Nothing new here: an excerpt of the list.
SMILES	VDR inhibitor
Cc1cc(C(=O)Cn2nnc3ccccc3c2=O)c(C)n1Cc1cccs1	2%
COc1ccc(CN2[C@@H](CC(C)=O)c3cc(C(F)(F)F)ccc3S2(=O)=O)cc1	-1%
CC(=O)c1c(C)[nH]c(C(=O)NCc2ccccc2F)c1C	-4%
COc1cc(NC(=O)COC(=O)c2cc(S(=O)(=O)N3CCCCC3)ccc2Cl)c(C)cc1[N+](=O)[O-]	-2%
Cc1cccc(-n2ccnc2SCC(=O)Nc2nccs2)c1C	-17%
Cc1ccc2nc(C)cc(C(=O)OCC(=O)Nc3c(C)n(C)n(-c4ccccc4)c3=O)c2c1	-20%
CSc1nc2ccc3nc(NC(=O)c4ccc(C)cc4)sc3c2s1	-10%
O=C(CN(Cc1ccc(F)cc1)C(=O)CCC(=O)Nc1ccccn1)NCCc1ccccc1	7%
CCN1CCN(C(C(=O)NC2CCCC2)c2cc3c(cc2[N+](=O)[O-])OCO3)CC1 (configuration not stated)	-5%
COC(=O)[C@]1(CC(C)C)N[C@H](c2ccc(-c3ccc(Cl)c(Cl)c3)cc2)[C@@H]2C(=O)N(C)C(=O)[C@@H]21	-8%
CCOc1ccccc1C(=O)N1CCN=C1SCc1cccnc1	-3%
CC(C)Cc1csc(NC(=O)C(C)C)c1C(=O)O	24%
CC(C)(C)Nc1nc(Cl)nc(NCc2ccccc2)n1	-6%
CC1=C(C(=O)Nc2ccccc2)C(c2cccnc2)n2ncnc2N1 (configuration not stated)	6%
COc1ccc(OC)c(NC(=O)CCOc2cccc(C)c2)c1	9%
COc1ccc(N(CC(=O)NC2CCCC2)S(=O)(=O)c2ccc(NC(C)=O)cc2)cc1	-12%

Further records follow:
SMILES	VDR inhibitor
CCCC1CC(C)(c2csc(Nc3ccc(OCC)cc3)n2)OC1=O (configuration not stated)	-3%
CCNc1sc(S(C)(=O)=O)nc1S(=O)(=O)c1ccc(Cl)cc1	-24%
C=CCSc1nc(C)cc(C(=O)OCC)c1C#N	2%
COc1cc(/C=N/Nc2nc(Nc3ccccc3)nc(N3CCCCC3)n2)ccc1OCC(=O)O	-16%
CC(C)c1cccc(C(C)C)c1OC(=O)[C@H]1OC(c2ccc(Br)cc2)=C[C@@H]1c1ccc(Br)cc1	-3%
Cc1ccc(-c2cc(C(=O)Nc3nn[nH]n3)c3ccccc3n2)cc1	-5%
O=c1[nH][nH]c(C(F)(F)F)c1/C=N/N1CCOCC1	8%
CCOCCCNCC(=O)NCC1CCCCC1	-1%
CCNC(=S)NNC(=O)c1ccccc1OC(F)F	-2%
C=CCNc1ncnc2sc(SC)nc12	-15%
Cc1cnc(C(=O)N(CC(C)C)c2c(N)n(CC(C)C)c(=O)[nH]c2=O)cn1	-9%
O=C(OCC(=O)N1CCN(c2ccccc2)CC1)c1cccc([N+](=O)[O-])c1	-4%
CCCOc1ccc(N/C=C/C(=O)c2cc(OC)c(OC)c(OC)c2)cc1	-8%
CC1(C)NC(=O)N(CC(=O)N2CCN(c3cccc(Cl)c3)CC2)C1=O	2%
C[C@H](NC[C@H](O)CP(=O)(O)Cc1ccccc1)c1ccc(Cl)c(Cl)c1	0%&6%
Nc1nc(N)c(S(=O)(=O)c2ccccc2)c(Nc2ccc(Br)cc2)n1	1%
CC(=O)OCC1OC(COC(C)=O)(c2ccc(C)cc2)C(OC(C)=O)C1OC(C)=O (configuration not stated)	-9%
COc1ccc2[nH]cc(CCNc3ncncc3-c3ccc(N(C)C)cc3)c2c1	-4%
Cc1ccc(NC(=O)CSc2ccc(C(N)=O)cc2[N+](=O)[O-])cc1C	22µM*
C(/Oc1ccccc1)=C1\Nn2c(nnc2-c2cc(-c3ccccc3)n[nH]2)S1	5%&-17%
CC(C)C(=O)Nc1sc2c(c1-c1nc3ccccc3[nH]1)CCCC2	7%
CCCc1cc(=O)oc2c(C)c(OCC(=O)NCc3ccccn3)ccc12	7%
COc1ccc(-n2nc(C(=O)NCCc3ccc(OC)c(OC)c3)c3c4ccccc4n(C)c3c2=O)cc1Cl	-6%
CSc1nc(-c2ccc(C)cc2)nc(C(Cl)Cl)n1	21%
Cc1c(C)n2c(SCC(=O)N3CCCCCC3)nnc2[nH]c1=O	14%
CCOc1cccc(CNC(=O)c2ccc(N3CCCC3)c(NC(=O)Nc3ccccc3CC)c2)c1	4%
